PrP 5UTR inh = inhibition of PrP 5' UTR reporter expression | cell-based PrP 5' UTR mRNA reporter, plate reader | actives 0.35% (n = 340,000) | inhibition, % (no concentration beside the values) | AID 488862;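 active = every replicate at 50% or more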;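 note: 0 = median of the neutral control wells; tested in H4 reporter cells; numbers are from one replicate; inactives centre near -14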
Mtb hypoxia rep = Mtb hypoxia fluorescent reporter inhibition; M. tuberculosis hypoxia-regulated fluorescent reporter, fluorescence; fluorescence inhibition, % (no concentration beside the values); actives 0.1% (n = 300,000);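 active = 35 to 45% if threefold the growth effect, above 45% if 1.5-fold the growth effect; inactive = the rest, general growth blockers included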;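 note: wells of about 50 µL received 100 nL stock; 0% = vehicle wells and 100% = reference inhibitor wells; whole bacteria with a GFP reporter of the hypoxia response; strong numbers were not always called active; many hits fall short of the cut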
RN4220 kill = kills Staphylococcus aureus RN4220 | S. aureus RN4220 growth, OD600, 16 h | inhibition, % (concentration not given with the values) | actives 0.33% (n = 330,000) | AID 1259311;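 active = z-score of -3 or lower and OD600 up to 0.18 on both plates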;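 note: plate controls were untreated cells for no effect and reference antibiotic for full effect; stock transfer was 100 nL into about 80 µL; one replicate is shown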
BJeLR viability = BJeLR cell viability loss | BJeLR (HRASV12) viability, CellTiter-Glo ATP luminescence, 48 h; reference of the scale not given here | inhibition, % (test concentration not listed) | actives 0.17% (n = 300,000) | AID 1554;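 active = replicate mean above 50%; inconclusive = above 50% but judged a plate artefact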;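 note: 50 nL library stock added to about 25 µL; numbers are from one replicate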
Bead autofluor = flagged as autofluorescent in microsphere protease counterscreen. AID 624483. actives 3.1% (n = 360,000). fluorescence intensity (concentration not given with the values). compound autofluorescence counterscreen, microsphere flow cytometry; hits give high values;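 active = at least 3 SD above the mean of all compounds, about 16000 in these data; inconclusive = too few beads counted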;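 note: 100 nL of 1 mM stock went into each well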
ugtP null kill = compounds lethal to S. aureus RN4220 ugtP deletion mutant; OD600 growth, 16 h; some inactives read as strong as hits; growth inhibition, % (concentration not given with the values); actives 0.54% (n = 330,000);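 active = z-score under -3 and OD600 up to 0.15 on both plates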;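 note: plate controls were untreated wells for no effect and antibiotic for full effect; wells of about 80 µL received 100 nL stock; the first replicate is given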
Mtb hypoxia rep growth = recorded beside Mtb hypoxia rep, whose call it bears; growth inhibition, %; measured here: M. tuberculosis growth (absorbance);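 0% = vehicle and 100% = reference antibiotic; read after six days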
* hit, by the source's call; ? = inconclusive; . = no result given; & = joins results of further samples. Compounds were not picked by outcome. Share with any hit: about 4%.

SMILES	PrP 5UTR inh	Mtb hypoxia rep	Mtb hypoxia rep growth	RN4220 kill	BJeLR viability	Bead autofluor	ugtP null kill
CC(=O)c1cccc(N=Nc2c(C)[nH]c3ccccc23)c1	-6	8	9	-6.4	13	2272	-9
CC(Cc1ccccc1)NC(=O)Cc1ccc([N+](=O)[O-])cc1 (centres undefined)	-15	6	7	0.6	-4	3560	4
CCOc1c(C)cnc2c1c(=O)n(CC(=O)NCC1CCCO1)c(=O)n2C (centres undefined)	-11	2	0	6.9	-2	.	5
CCC(C)NC(=O)CN1C(=O)NC2(CCc3ccccc3C2)C1=O (centres undefined)	-30	-2	-1	5.6	-21	3220	12
O=C(NCCn1cccn1)C1CCC(=O)N(CC2CCCCC2)C1 (centres undefined)	-14	13	8	2.1	-6	5195	7
CCOC(=O)N1CCC(Nc2c(-c3ccc(C)c(C)c3)c(=O)c2=O)CC1	73*	5	9	0.8	-1	4680	-3
CC1=NN(c2ccccc2)C(c2ccco2)C1 (centres undefined)	5	14	1	2.3	.	2925	11
Cc1ccnc(SCC(=O)N2CCc3ccccc32)n1	-29	-6	6	0.0	-16	3684	3
COc1ccc(S(=O)(=O)N2CCCCC2)cc1NC(=O)Cn1cnc2c1c(=O)n(C)c(=O)n2C	-11	5	3	6.4	.	2758	4
O=c1[nH]snc1-c1c(Cl)cccc1Cl	-4	.	.	4.8	1	6074	-2
N#Cc1nc(-c2ccco2)oc1NCc1ccc(F)cc1	-13	16	16	-8.1	4	2961	-8
CCCCC(=O)N(Cc1nc2sc(C)c(C)c2c(=O)[nH]1)C1CCCC1	-27	3	9	3.3	3	4632	7
CCc1ccc(NC(=O)CSc2nnnn2-c2cccnc2)cc1	-9	-5	-6	0.7	2	4380	5
CCN1CCCc2cc(CN(CCN3CCOCC3)C(=S)Nc3cccc(C)c3)ccc21	-7	11	2	1.8	1	4985	8
Cc1ccc(S(=O)(=O)N2CCCCC2)cc1NC(=O)C1CC(=O)N(Cc2ccco2)C1 (centres undefined)	-14	-5	2	1.9	.	3615	1
CC(C)(C)NC(=O)CCSc1nnc(-c2ccco2)o1	-43	.	.	4.1	0	5429	-2
O=S(=O)(Nc1ccc(F)cc1)c1ccc(NS(=O)(=O)c2cccs2)cc1	-16	8	11	1.2	0	4400	15
O=C(O)c1ccc(/C=N/N2CCN(Cc3ccc(Cl)cc3)CC2)cc1	-10	.	.	.	4	3934	.
COc1cccc(C(=O)NC2CCN(C(=O)N3c4ccccc4Sc4ccccc43)CC2)c1	-11	-2	0	11	-9	4274	-7
Cc1[nH]c(=O)[nH]c(=S)c1C(=O)Nc1ccc(Cl)c(Cl)c1	-73	6	1	2.5	1	3217	3
CN(Cc1ccccc1)S(=O)(=O)c1ccc2[nH]c(=O)ccc2c1	-4	6	2	7.4	7	6491	3
COC(=O)c1cccc(NC(=O)c2ccc(OC)c(Cl)c2)c1	-19	8	13	15	9	4522	4
CCCCC(=O)NC(=S)Nc1ccccc1N1CCCCC1	-11	6	4	-1.2	1	2475	84*
COc1ccc(NC(=O)c2ccc(S(=O)(=O)N(C)c3ccccc3)cc2)cn1	-25	-3	7	7.8	3	3369	2

Reprinted from the part before: 6 entries, followed by the next part.
SMILES	PrP 5UTR inh	Mtb hypoxia rep	Mtb hypoxia rep growth	RN4220 kill	BJeLR viability	Bead autofluor	ugtP null kill
COc1cccc(C(=O)NC2CCN(C(=O)N3c4ccccc4Sc4ccccc43)CC2)c1	-11	-2	0	11	-9	4274	-7
Cc1[nH]c(=O)[nH]c(=S)c1C(=O)Nc1ccc(Cl)c(Cl)c1	-73	6	1	2.5	1	3217	3
CN(Cc1ccccc1)S(=O)(=O)c1ccc2[nH]c(=O)ccc2c1	-4	6	2	7.4	7	6491	3
COC(=O)c1cccc(NC(=O)c2ccc(OC)c(Cl)c2)c1	-19	8	13	15	9	4522	4
CCCCC(=O)NC(=S)Nc1ccccc1N1CCCCC1	-11	6	4	-1.2	1	2475	84*
COc1ccc(NC(=O)c2ccc(S(=O)(=O)N(C)c3ccccc3)cc2)cn1	-25	-3	7	7.8	3	3369	2
O=C(C(=NNc1ccccc1)c1ccccc1)c1ccccc1	-9	16	12	-8.8	.	3590	10
O=C1OC(COc2ccc(Br)cc2)CN1c1ccccc1 (centres undefined)	-10	15	4	1.0	1	5855	6
Cc1ccc(NCC(=O)N2CCN(S(=O)(=O)c3ccccc3)CC2)cc1F	-13	-8	-3	3.1	.	5953	8
N#Cc1cc2c(nc1SCC(=O)N1CCCCC1)CCCCC2	-23	.	.	2.8	-7	4751	6
CCCOc1ccccc1C(=O)Nc1ccc(S(=O)(=O)N2CCN(C)CC2)cc1	-11	-1	6	-1.9	4	3556	2
O=[N+]([O-])c1ccc(Oc2ccc(Oc3ccc(C(F)(F)F)cn3)cc2)nc1	0	5	-10	1.7	-5	5989	12
CC(C)C(c1nnnn1C1CCCC1)N1CCc2ccccc21 (centres undefined)	-13	4	6	5.8	.	17487*	-7
Cc1[nH]c2ccccc2c1[C@H]1[C@@H](CC#N)C1(C)C	-12	.	.	1.1	1	3729	17
COC(=O)c1sc(NC(=S)NC(=O)c2ccc(F)cc2)nc1C	.	15	6	2.4	5	.	6
O=S(=O)(NCc1ccco1)N1CCOCC1	-10	.	.	1.4	-3	4660	8
O=C(c1ccc([N+](=O)[O-])cc1)N1CCSC1c1cccc(Cl)c1 (centres undefined)	-14	-1	4	-4.6	-8	3489	-9
O=C(CN1C(=O)NC2(CCCCCCC2)C1=O)NCc1ccccc1	-23	14	12	1.9	.	3419	2

One compound at a time, from the list above. Screens in order: PrP 5UTR inh, Mtb hypoxia rep, Mtb hypoxia rep growth, RN4220 kill, BJeLR viability, Bead autofluor, ugtP null kill
N#Cc1cc2c(nc1SCC(=O)N1CCCCC1)CCCCC2 across the screens: -23, ., ., 2.8, -7, 4751, 6
Cc1ccc(NCC(=O)N2CCN(S(=O)(=O)c3ccccc3)CC2)cc1F across the screens: -13, -8, -3, 3.1, ., 5953, 8

The list continues:
SMILES	PrP 5UTR inh	Mtb hypoxia rep	Mtb hypoxia rep growth	RN4220 kill	BJeLR viability	Bead autofluor	ugtP null kill
S=c1nc(-c2ccccc2)n(CCCn2ccnc2)c2c1CCCC2	-9	1	2	0.5	-9	5886	13
Cc1cc(C(=O)Nc2c(F)cc(F)cc2Br)no1	-30	6	-1	2.0	-14	11489	13
C=CCC(CC(=O)N(CCO)Cc1ccccc1)C(=O)NC(COC(=O)C(CC=C)Cc1ccc(F)cc1)Cc1ccccc1 (centres undefined)	.	11&13&9&6	-1&7&4&11	-6.6&-7.5&-7.4&-14	.	.	18&-2&-2&-10
COC(=O)NNS(=O)(=O)c1ccc(C)cc1	-11	1	8	2.0	-12	2812	0
O=C(O)c1ccc2noc(-c3ccccc3)c2c1	-25	.	.	3.9	-6	5592	0
CCOC(=O)c1c(C)[nH]c(C(=O)NNC(=O)c2ccccc2F)c1C	-91	11	7	1.6	.	2789	6
Cc1c(C)n(Cc2ccccc2)c2ncnc(NCCO)c12	.	-9	-8	2.8	13	3151	3
CCOC(=O)N1CCN(CCC(=O)Nc2cccc(C)c2)CC1	-5	0	6	-2.4	-19	3691	4
C=C1c2cc(C)ccc2NC(=O)N1c1ccccc1	-17	-12	-7	6.4	-5	2091	8
Cc1ccc(NC(=O)CCC(=O)NNC(=O)c2ccco2)cc1C	-9	3	11	-2.8	10	11040	-2
Cc1cccc(NCC(=O)N/N=C\c2c[nH]c3ccccc23)c1	-23	.	.	.	-6	2487	.
COc1ccc(S(=O)(=O)Oc2cccc(/C=N/N=C3/NC(=O)C(CC(=O)O)S3)c2)cc1 (centres undefined)	-10	.	.	.	-3	3768	.
Cc1ccc(S(=O)(=O)N2CCCOC2CNC(=O)C(=O)NC2CCCC2)cc1 (centres undefined)	-7	7	4	1.8	-3	5862	-1
COCCN1Cc2cccc(C(=O)Nc3c(C)cccc3C)c2C1=O	-30	.	.	6.4	0	2377	5
CCc1nc(Nc2ccc(F)cc2)c2oc3ccccc3c2n1	-8	-2	12	22	3	3810	-1
Cc1cc(C)cc(-n2c(C)c3c(C)nnc(C)c3c2C)c1	-9	.	.	.	5	9275	.
CC1CN(C(=O)CCCN2C(=O)c3ccccc3C2=O)CC(C)O1 (centres undefined)	-15	-3	3	-1.6	-6	3012	0
Cc1ccccc1-c1nc(C#N)c(N2CCCCC2)o1	-18	12	8	7.3	-1	4089	15
COc1ccccc1C(=O)NNC(=O)c1ccncc1	-27	9	6	2.9	0	4658	1
Oc1cccc(Oc2ncc(C(F)(F)F)cc2Cl)c1	-14	8	-3	0.8	6	2545	4
Cc1nc(NC(=O)C23CC4CC(CC(C4)C2)C3)sc1Cc1ccc2c(c1)OCO2	-22	-13	-23	-2.7	10	7533	-5
COc1ccc(/C=C/C(=O)NC(=S)NNC(=O)c2cccnc2)cc1	-12	10	4	23	0	2525	-7
CCC12CN3CC(CC)(CN(C1)C3c1c(O)ccc3ccccc13)C2=O (centres undefined)	-4	-4	-1	14	4	2449	11
O=C(COc1cc(F)ccc1[N+](=O)[O-])NCCCc1ccccc1	-19	1	5	2.2	0	3865	8
CC(NC1CCCC1)c1ccccc1 (centres undefined)	-11	2	1	7.9	-3	4411	10
O=C(CCN1C(=O)/C(=C/c2ccc3c(c2)OCO3)SC1=S)Nc1cccc(C(=O)O)c1	-23	11	7	11	1	3590	3
O=C(N/N=C/c1ccc(O)cc1O)/C(=C/c1ccccc1)CCO	-22	.	.	.	-12	2559	.
O=C(Nc1cccc([N+](=O)[O-])c1)NC1CCS(=O)(=O)C1 (centres undefined)	-7	-1	-1	2.6	13	6153	8
O=C1OCc2cccc3cccc1c23	-3	0	-4	0.7	-6	8123	9
CN(C)c1ccc(/C=C(\NC(=O)c2ccccc2)C(=O)NCc2ccncc2)cc1	-12	5	-6	0.7	-14	5096	-3
CCOc1cc(C)c(S(=O)(=O)N2CCCC2)cc1C	-3	7	7	3.8	3	9741	-4
CCN1CCC(NCCc2ccc(F)cc2)CC1	-17	2	5	-1.1	-3	3676	4
COc1ccc(C(=O)C(C=NO)=NNc2ccc(F)cc2)cc1	.	2	11	28	.	.	17
O=C(NCc1ccncc1)C(=O)C1C(=O)Nc2ccccc21 (centres undefined)	-44	1	10	6.3	-5	3474	9
CC1Cc2nc(SCC(=O)Nc3nc4ccccc4s3)n(C)c(=O)c2S1 (centres undefined)	-22	3	-1	7.6	7	5913	10
Cc1nn2cnnc2c(C)c1Cc1c(F)cccc1Cl	-2	14	11	4.4	-9	3754	-1
O=C(Nc1cccc(Br)c1)c1ccc(CN2CCc3ccccc3C2)cc1	-11	1	-8	9.3	8	3207	10
CC(=O)CCn1cc([N+](=O)[O-])nc1C	-39	7	12	0.8	3	5810	7
COc1ccccc1NC(=O)CSc1nnc(Cn2cnc3ccccc32)n1C	-13	2	4	3.5	-17	3062	-2
Cc1ccc(NC(=O)Cn2nnc(C(=O)NCc3cccs3)c2N)cc1Cl	-4	-8	6	1.8	8	5121	-2
CC1C(=O)N2CCCc3cc(NC(=O)C(=O)NCCc4c[nH]c5ccccc45)cc1c32 (centres undefined)	-2	-4	13	1.4	-3	?	-3
Cc1ccc(CSc2ncnc3c2cnn3-c2ccccc2)cc1	-42	3	12	-6.8	3	1943	57
O=C(CCN1CCN(c2ccccc2)CC1)NNC(=O)Cc1c(F)cccc1Cl	-7	2	7	-0.6	.	4192	1
Cc1ccc(C)c(NC(=O)CSc2ccc(-c3cccs3)nn2)c1	-29	3	3	2.5	-8	6576	15
Cn1c(COc2cccc3ccccc23)nnc1SCC(=O)OC1CCCCC1	-8	11	6	97*	10	3435	92*
O=C(CN1CCC(n2nnc3cc(F)ccc32)CC1)N1CCc2ccccc2C1	-7	-8	9	4.1	-4	8069	0
COc1ccc(OC)c(C2C(C(N)=O)=C(C)Nc3nc(CCCO)nn32)c1 (centres undefined)	-23	-1	1	5.4	1	5334	-1
C[C@]12c3[nH]c4ccccc4c3CCN1C(=O)C(CC(=O)NCc1cccc(C(F)(F)F)c1)C[C@@H]2C(=O)N1CCOCC1 (some centres undefined)	-19	5	8	-0.7	.	4010	3
Cc1ccc(Cl)cc1N1CCN(c2cccc[n+]2C)CC1	5	5	3	7.2	2	9033	4
CCOc1ccc(NC(=O)CN2CCN(Cc3c(F)cccc3F)CC2)cc1	.	-11	-1	1.6	-1	3293	7
CN(CC(=O)Nc1ccccc1Cl)C(=O)COC(=O)c1ccc(Cl)cc1[N+](=O)[O-]	-14	10	10	6.1	-2	5405	10
Cc1ccsc1C=Nn1c(=S)[nH]nc(C)c1=O	.	13	3	5.9	.	.	-1

High-throughput results (PubChem)
